KCNQ2 pot: KCNQ2 (rat) channel potentiation; hit rate 0.54% among 310,000; O88943; CHO-K1 KCNQ2, FluxOR thallium flux fluorescence; active compounds read high; B-score at 10 µM;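 active means fluorescence ratio B-score at least 3 SD of library B-scores, with initial fluorescence B-score within 3 SD, cut at about 5.3 in these data; same plate scores as AID 2156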;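 further: B-score of peak minus minimum over baseline fluorescence ratio after K+ and Tl+ stimulus; positive B-score means potentiation of KCNQ2 with more thallium influx and brighter signal; only the inactives scoring about 0 or higher are listed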
Target sequence (O88943 whole entry, looked up): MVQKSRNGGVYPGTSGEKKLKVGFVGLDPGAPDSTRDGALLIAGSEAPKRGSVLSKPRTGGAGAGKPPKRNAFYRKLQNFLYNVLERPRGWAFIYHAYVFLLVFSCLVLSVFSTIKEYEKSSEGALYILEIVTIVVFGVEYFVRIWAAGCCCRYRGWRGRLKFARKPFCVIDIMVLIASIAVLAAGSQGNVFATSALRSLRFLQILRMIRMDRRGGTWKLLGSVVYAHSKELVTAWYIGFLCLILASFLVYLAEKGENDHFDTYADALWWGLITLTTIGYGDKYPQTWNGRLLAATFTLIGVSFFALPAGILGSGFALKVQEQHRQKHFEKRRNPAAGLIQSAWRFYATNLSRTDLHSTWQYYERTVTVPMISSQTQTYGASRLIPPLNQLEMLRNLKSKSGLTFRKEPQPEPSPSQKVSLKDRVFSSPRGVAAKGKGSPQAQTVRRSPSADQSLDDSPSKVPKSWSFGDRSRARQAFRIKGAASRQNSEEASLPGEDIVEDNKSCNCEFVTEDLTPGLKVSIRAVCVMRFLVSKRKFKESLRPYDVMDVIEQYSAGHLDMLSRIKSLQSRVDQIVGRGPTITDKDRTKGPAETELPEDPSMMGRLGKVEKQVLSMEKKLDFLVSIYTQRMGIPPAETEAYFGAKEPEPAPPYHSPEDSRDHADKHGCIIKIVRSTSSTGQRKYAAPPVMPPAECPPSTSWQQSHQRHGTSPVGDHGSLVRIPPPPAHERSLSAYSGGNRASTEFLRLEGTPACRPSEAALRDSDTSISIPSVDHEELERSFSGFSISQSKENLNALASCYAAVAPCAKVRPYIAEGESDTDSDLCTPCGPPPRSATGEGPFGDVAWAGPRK
KCNQ2 pot baseline: further read-out of KCNQ2 pot, marked with its call; B-score; compound at 10 µM; measured here: initial fluorescence intensity artifact check;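 brightness before thallium and not channel activity; 0 = typical well and far values either way flag optical interference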
Numbers without * were called inactive. These rows are one share of the data; rates above refer to the full screens.

SMILES	KCNQ2 pot	KCNQ2 pot baseline
O=c1c2ccccc2nc(CNc2ccccc2)n1-c1ccccc1	0.04	-0.01
O=C(Nc1ccc(Cl)c(Cl)c1)c1ccco1	2.9	0.07
CNC(=O)O/N=C(\N)Cc1csc2ccc(Cl)cc12	0.75	1.2
O=C(NCCCN1CCOCC1)C(Cl)(Cl)Cl	0.7	-0.68
Cc1cccc(C)c1N1CCN(c2c(C)cccc2C)CC1	0.5	0.01
C=C1C2C[C@H](O)C(C)(C)[C@@]2(O)[C@H](O)C[C@]23C[C@@](C)(O)[C@H](CC[C@H]12)[C@H]3OC(C)=O (some centres undefined)	3.4	-0.34
C[N+]1(CC(COCc2ccccc2)OC(=O)Cc2ccccc2)CCOCC1 (centres undefined)	0.01	-0.44
Cc1ccc(-n2c(O)c(/C=N/NC(=O)c3ccncc3)c(=O)[nH]c2=O)cc1C	0.02	-0.01
S=c1[nH]c2ccccc2[nH]1	0.73	0.45
Cc1cc2ccccc2c(=O)n1CC(=O)NCC(=O)N1CCC2(CC1)OCCO2	0.22	0.4
COCCNC(=O)c1c(N)n(CCC(C)C)c2nc3ccccc3nc12	1.2	1.1
Cc1cc(=O)oc2cc(OCC(=O)N3C[C@H]4C[C@@H](C3)c3cccc(=O)n3C4)c(Cl)cc12	0.27	-0.98
Cc1ccc(CN2CCCN(Cc3ccccc3C)S2(=O)=O)cc1	2.7	-0.48
O=C(CN1CCCCC1)c1ccccc1F	1	-1
CCC(=NCC1CCCO1)c1c(O)[nH]c(=O)[nH]c1=O (centres undefined)	1.1	0.42
CCn1cc(C(=O)N2CCOCC2)c2ccccc21	1.3	-0.83
CN(C)CCCN=Cc1c(O)n(Cc2ccco2)c(=O)[nH]c1=O	0.22	-0.13
COc1ccc2nc3oc(C(=O)N4CCC5(CC4)OCCO5)cc3cc2c1	0.12	0.67
O=C1CC(=O)N(Cc2ccccc2)C(=O)N1CCCCCCN1C(=O)CC(=O)N(Cc2ccccc2)C1=O	0.46	1.4
CCCCn1c(O)c(C(C)=Nc2ccc(OCC)cc2)c(=O)[nH]c1=O	0.85	-0.78
COc1ccc(C2=CC(c3ccc(OC)c(OC)c3)c3c(c4ccccc4oc3=O)O2)cc1OC (centres undefined)	0.45	1.7
c1cncc(CNC2CCCC2)c1	0.88	-0.22
CN(C)C(=O)Oc1ccc(Br)c2ccccc12	3.2	1.1
COc1ccc(C(Nc2ccccc2)P(=O)(Oc2ccccc2)Oc2ccccc2)cc1 (centres undefined)	0.15	-1.2
COc1ccc(OC)c(N2C(=O)NC(=O)/C(=C\c3ccc([N+](=O)[O-])s3)C2=O)c1	2.1	-0.03
Fc1ccc(Cn2nnnc2C(c2ccc(Cl)cc2)N2CC=C(c3ccc(F)cc3)CC2)cc1 (centres undefined)	0.88	-0.53
O=C(O)CC1OCC=C2CN3CCC45C6=CC(=O)C(=O)C([N+](=O)[O-])=C6NC4C1C2CC35 (centres undefined)	0.02	0.1
COc1ccccc1OCC#CCN1CCCC1	0.09	-0.77
CC(C)c1ccc(NC(=O)CCNC(=O)N2C[C@H]3C[C@@H](C2)c2cccc(=O)n2C3)cc1	0.79	-0.33
C[C@@H]([C@@H](O)c1ccccc1)N(C)C(=O)Cc1ccccc1	0.11	-1.5
COC(=O)C(O)(c1c(C)[nH]n(-c2ccccc2)c1=O)C(F)(F)F (centres undefined)	0.24	-1.1
Cc1[nH]c2ccccc2c1CCCNC1CCCCC1	0.03	-0.38
CC1(C)CSC(=NCc2ccccc2)N1	4.4	0.97
N/C(=N\N=C\c1ccc(O)cc1O)N[N+](=O)[O-]	0.21	1.2
Cc1ccc(C2(O)CN3CCC2CC3)cc1 (centres undefined)	0.16	0.54
COc1cc(CNCCc2ccc3c(c2)OCO3)cc(OC)c1OC	1.4	-0.05
CCN(CC)c1ccc(/C=C2/C(=O)NC(=O)N(Cc3ccco3)C2=O)cc1	0.89	0.99
Cc1ccc(N2C(=O)NC(=O)C(CCc3ccccn3)(Cc3cccc(Cl)c3Cl)C2=O)cc1 (centres undefined)	0.01	-0.52
C=CCN1C(=O)C2(C(C(=O)OCC)=C(N)Oc3ccccc32)C2=C1CCCC2=O (centres undefined)	3.2	0.02
Cn1c(O)c(/C=C2\C=Nc3ccccc32)c(=O)n(C)c1=O	0.97	-1.2
O=C(Cn1ccc2ccccc2c1=O)NCC(=O)N1CCC2(CC1)OCCO2	0.92	0.21
CC(C)(C#CCCCCC#CC(C)(C)[N+](C)(C)C)[N+](C)(C)C	1	-0.67
COc1cc(C(=O)NC(=S)N2C[C@H]3C[C@H](C2)c2cccc(=O)n2C3)cc(OC)c1OC	0.2	0.32
CN1CCCN(C(=O)COc2ccc(Br)cc2)CC1	0.06	-0.64
Cc1ccc(C)c(NC(=S)NCCc2cnc[nH]2)c1	1.1	-0.78
CC1(C)CN(S(=O)(=O)OCC(Cl)(Cl)Cl)C(=O)N1	0.74	0.05
CCCC[N+]12CCC(CC1)C(C(=O)c1cccs1)C2 (centres undefined)	0.61	1
C[C@H](NC(=O)CCC(=O)N1C[C@H]2C[C@H](C1)c1cccc(=O)n1C2)c1ccccc1	1.9	-0.08

Part of the list above in order of length of the SMILES, descending.
SMILES	KCNQ2 pot	KCNQ2 pot baseline
C=CCN1C(=O)C2(C(C(=O)OCC)=C(N)Oc3ccccc32)C2=C1CCCC2=O (centres undefined)	3.2	0.02
COC(=O)C(O)(c1c(C)[nH]n(-c2ccccc2)c1=O)C(F)(F)F (centres undefined)	0.24	-1.1
CC(C)(C#CCCCCC#CC(C)(C)[N+](C)(C)C)[N+](C)(C)C	1	-0.67
COc1ccccc1OCC#CCN1CCCC1	0.09	-0.77

(cont.)
SMILES	KCNQ2 pot	KCNQ2 pot baseline
O=C1NC(=O)C(CCc2ccccn2)(Cc2ccc3c(c2)OCO3)C(=O)N1CCc1ccccc1 (centres undefined)	0.63	-0.66
Cc1ccc(C)c(Cn2c(C(=O)O)c(C=O)c3ccccc32)c1	3.4	-0.01
CCN(CC)C(=O)c1ccc(NC(=O)c2cc(-n3cnnc3)ccc2Cl)cc1	2.3	-0.36
c1ccc2c(c1)CSc1ccccc1C2C1=NCCN1 (centres undefined)	1.8	0.02
COc1ccc(C(=O)OC2C[C@H]3CC[C@@H](C2)N3O)cc1OC (some centres undefined)	0.01	0.5
CN(C)CCCN=Cc1c(O)n(CCc2ccccc2)c(=O)[nH]c1=O	0.13	1.6
COc1cc2occc2c2oc(=O)ccc12	0.54	1.2
Cc1c(N=Nc2c(O)[nH]c(=O)[nH]c2=O)c(=O)n(-c2ccccc2)n1C	2.6	-0.95
COC(=O)C(O)(c1ccc(NC(=O)Oc2ccccc2)cc1)C(F)(F)F (centres undefined)	0.75	1.2
Cn1c(O)c(C(c2ccncc2)c2c(O)n(C)c(=S)n(C)c2=O)c(=O)n(C)c1=S	0.75	-1.9
O=C(CCc1nnc2ccc(NCc3ccccc3)nn12)N1CCC2(CC1)OCCO2	0.74	-1.4
O=C(c1ccccc1)c1cn(CC(=O)N2CCOCC2)c2ccccc12	1.1	0.75

Entries of single compounds, quoted from the list.
CN(C)CCCN=Cc1c(O)n(CCc2ccccc2)c(=O)[nH]c1=O in the list: KCNQ2 pot: 0.13; KCNQ2 pot baseline: 1.6
COc1ccc(C(=O)OC2C[C@H]3CC[C@@H](C2)N3O)cc1OC (some centres undefined) in the list: KCNQ2 pot: 0.01; KCNQ2 pot baseline: 0.5
Cc1ccc(C)c(Cn2c(C(=O)O)c(C=O)c3ccccc32)c1 in the list: KCNQ2 pot: 3.4; KCNQ2 pot baseline: -0.01

The list goes on.
SMILES	KCNQ2 pot	KCNQ2 pot baseline
Cc1c2cnn(CC(=O)N3CCC4(CC3)OCCO4)c(=O)c2c(C)n1Cc1cccc(Cl)c1	0.68	-1.8
CC(=O)O[C@@]12CO[C@@H]1C[C@H](O)[C@@]1(C)C(=O)[C@H](O)C3=C(C)[C@@H](O)C[C@@](O)([C@@H](OC(=O)c4ccccc4)C12)C3(C)C (some centres undefined)	0.89	0.99
CC(C)c1ccc(C2N3CCCN23)cc1 (centres undefined)	0.42	-0.45
CCOc1cc(C(=O)N2CCC3(CC2)OCCO3)cc(OCC)c1OCC	0.29	-0.73
C[N+]1(C)CCOC(O)(c2ccc(-c3ccc(C4(O)C[N+](C)(C)CCO4)cc3)cc2)C1 (centres undefined)	1.4	-0.14
Cc1ccc(C2(O)CCN3CCCCC32)cc1 (centres undefined)	1.6	0.43
Cc1cc(Cl)ccc1OC(C)C(=O)O (centres undefined)	0.08	1.9
CCC1C(C#N)=C(N)Oc2c1c(=O)oc1ccccc21 (centres undefined)	0.66	-0.64
COc1ccc(CCC(=O)NCCc2cnc[nH]2)cc1	0.33	1.2
CCn1c(=O)cc(OCC(=O)N2CCC3(CC2)OCCO3)c2ccccc21	0.88	-0.81
Cc1ccnc(-n2c(C)cc(/C=C3\C(=O)NC(=S)N(C)C3=O)c2C)c1	0.07	-0.95
O=C(Nc1ccccc1)Oc1ccccc1	0.61	-2.5
CN(C)CC1CCCCC1OC(=O)c1ccc(Cl)c(Cl)c1 (centres undefined)	0.68	-0.68
COc1ccccc1-n1c(O)c(/C=C2\C=Nc3ccccc32)c(=O)[nH]c1=O	1.2	-1.8
CCn1ccnc1CN1CCCC(C(=O)c2ccc(OC)cc2OC)C1 (centres undefined)	1.8	-1.5
CCOC(=O)C1(CCCc2ccccc2)CCN(C2CCC2)CC1	0.66	-2.1
O=C(c1ccccc1[N+](=O)[O-])N1CCC2(CC1)OCCO2	0.1	1.3
CC(O)(CS(=O)(=O)c1ccc(F)cc1)C(=O)Nc1ccc(C#N)c(C(F)(F)F)c1 (centres undefined)	1.7	0.23
Cc1ccn2nc(S(=O)(=O)Nc3c(F)cccc3F)nc2n1	0.27	0.33
O=C(CNC(=O)c1ccc(Br)cc1)Nc1ccc(Br)cc1C(=O)c1ccccc1	1.7	-0.61
Cc1ccc(S(=O)(=O)N(C)CCCC(=O)N2CCN(c3ccccn3)CC2)cc1	0.68	0.3
CN(C)Cc1ccccc1OC(=O)N(C)C	1.3	0.9
COCCCn1c(N)c(C(=O)OC(C)COC)c2nc3ccccc3nc21 (centres undefined)	0.34	-0.27
FC(F)(F)c1ccc(NC2=NCCCS2)cc1	0.58	0.67
CCOC(=O)CCCCCNC(=O)c1c(O)[nH]c(=O)[nH]c1=O	0.03	1.6
N[C@@H](Cc1c[nH]c2ccccc12)c1nnc(SCc2ccccc2)o1	0.02	1.1
CC(C)CC12CN3CCN(CC(C3)C1O)C2 (centres undefined)	0.47	-0.39
CN(C)CCN(CC1CCCN(Cc2ccccc2F)C1)C(=O)Cc1ccc(F)c(F)c1 (centres undefined)	0.85	-0.41
O=C(/C=C/C=C/c1ccccc1)CC1(O)C(=O)Nc2ccccc21 (centres undefined)	0.4	0.65
O=C(Cc1ccc(N(CCCl)CCCl)cc1)NC(Cc1ccc(Cl)cc1)C(=O)O (centres undefined)	3.4	-2
COP(=O)(OC)C1(Nc2ccc(C)cc2)CCCCC1	0.11	0.66
COc1cc2c3c(c1OC)-c1cc(O)ccc1CC3NCC2 (centres undefined)	0.1	-0.9
CCCC12CN3CC(CCC)(CN(C1)C3c1ccccn1)C2=O (centres undefined)	1.1	0.1
C=CCn1c(O)c(/C(C)=N/N2CCCCC2)c(=O)[nH]c1=O	1.4	-1.1
CN1C2CCC1CC(OC(=O)c1ccc(Cl)cc1)C2 (centres undefined)	2.4	0.7
COCCCN1CCN(c2nnc3n2-c2sc(Br)cc2C(c2ccccc2Cl)=NC3)CC1	2.2	-0.53
COc1ccc(-c2nc3ccccc3c(=O)n2-c2cccnc2)cc1	0.65	-2.4
CC(=O)O[C@@H]1/C=C/[C@](C)(O)C[C@@H](C)C/C=C/[C@H]2[C@H](O)C(C)=C(C)[C@H]3[C@H](Cc4ccccc4)NC(=O)[C@@]123	0.92	-1.2
CCn1cc(CN2CCCC(C(=O)c3cccc(OC)c3)C2)c(C)n1 (centres undefined)	3.5	0
COc1ccc(-n2c(/C=C3/C(=O)Nc4ccccc43)nc3ccccc3c2=O)cc1	0.46	0.53
C[C@@H]1CC2(CCCC[N+]2(C)C)C[C@H]1C	0.97	3.3
Cc1cc(C)n2c(Br)c(CN3CC4CC(C3)c3cccc(=O)n3C4)nc2n1 (centres undefined)	0.44	3
COc1ccc(N2C(=O)/C(=C/c3ccc(C)o3)C(=O)NC2=S)c(OC)c1	0.15	-1.8
CC(=NCCN1CCOCC1)c1c(O)n(-c2ccccc2C)c(=O)[nH]c1=O	0.04	-0.65
CC1CCC(NCCc2ccc3c(c2)OCO3)CC1 (centres undefined)	1.5	1.7
CC(=O)N(C)CC#CCN1CCC(O)CC1	1.1	-0.01
CCOC(C[n+]1c(-c2ccccc2)cc(C)cc1-c1ccccc1)OCC	0.69	-0.15
CCN(CC)Cc1c[nH]c2ccccc12	0.33	0.08
Cc1ccc(S(=O)(=O)NCCC(=O)Nc2ccc(Cl)cc2C(=O)c2ccccc2)cc1	1.7	-0.48
COc1cc(OC)c(OC)cc1CNCCc1ccc(OC)c(OC)c1	0.26	-1.3
CCOc1cc2c(cc1OCC)-n1cccc1C(c1ccc(F)cc1)NC2 (centres undefined)	0.29	-0.05
Cc1c(C(=O)O)cccc1-n1c(C)cc(/C=C2\C(=O)NC(=O)N(c3ccc4c(c3)OCO4)C2=O)c1C	0.25	-0.03
CC1(C)Cc2c(C#N)c(N3CCNCC3)nc(-c3ccco3)c2CS1	0.95	-0.3
Cc1cc(=O)oc2c(C)c(OCC(=O)N3C[C@H]4C[C@@H](C3)c3cccc(=O)n3C4)ccc12	0.19	0.71
CN(C)c1nc(-c2ccccc2)[n+](C)s1	1.4	1.4
O=C(Cc1ccccc1)N1CCN(Cc2ccc([N+](=O)[O-])cc2)CC1	0.8	-0.49
CSc1ccc(C(=O)C2CCCN(Cc3ccn[nH]3)C2)cc1 (centres undefined)	0.16	-1.1

Source: PubChem
